From PubChem
CapD inh – Bacillus anthracis CapD inhibitors, primary screen, biochemical, fluorescence intensity | 140,000 tested, 0.23% active | purified CapD enzyme, fluorescence intensity read-out; active compounds read low; some hits fall short of the stated cut | z-score (concentration not given with the values) | CapD gamma-glutamyltranspeptidase (Bacillus anthracis Ames Ancestor) | AID 492967, 2010;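 active = z-score under -4 in either of two replicates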;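 note: stock transfer was 100 nL into about 40 µL; score is relative to mean and spread of the plate; one replicate is shown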
AID504770 – growth inhibition of E. coli YBA685, primary screen, V. cholerae RctB inhibitors; E. coli YBA685 rctB-dependent plasmid, OD600 growth, 3 h; active compounds read low; AID 504770, 2011; z-score (no concentration beside the values); 130,000 tested, 0.27% active;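 active = z-score under -2 on both plates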;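 note: wells of about 30 µL received 100 nL stock; score is relative to mean and SD of the test wells; the first replicate is given; strong numbers were not always called active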
* = called active by the depositor; . = not tested or not shown.

SMILES	CapD inh	AID504770
O=C1CCC(C(=O)OCc2ccccc2)N1 (stereo not drawn)	0.15	0.55
C=CCn1c(Cc2cccs2)nnc1SCc1c(Cl)cccc1Cl	-0.035	-0.3
c1ccc(C2=NCCN=C2c2ccccc2)cc1	-0.47	.
Cc1[nH]c(=O)nc(SCc2ccc(Cl)c(Cl)c2)c1C#N	.	-0.35
O=C(NCc1csc2ccccc12)c1ccc(Cl)cc1	-0.26	0.75
CC(C)COc1ccc(C(CC(=O)O)C(=O)O)cc1 (stereo not drawn)	8.4	-0.9
CCOC(=O)N1CCN(C(=O)c2ccc3c(c2)N(Cc2ccccc2)CCS3)CC1	30	-2.4
Cc1ccnc(S/C=C/C(=O)c2ccc(I)cc2)n1	-0.4	-0.65
Cc1nc(Sc2ccc(Br)cc2)c(C#N)c(C)c1[N+](=O)[O-]	-0.15	.
CC(c1ccccc1)N1C(=O)/C(=C\c2c(N3CCN(CCO)CC3)nc3ccccn3c2=O)SC1=S (stereo not drawn)	-0.005	.
CC1=C(C(=O)Nc2ccc(C)cc2)C(c2ccccc2Br)NC(=O)N1 (stereo not drawn)	-1.1	.
CN1CCC(NC2C3CC4CC(C3)CC2C4)CC1 (stereo not drawn)	0.15	-0.15
N#CCSc1nc(-c2cccnc2)ccc1C(=O)O	0.28	0
CC(C)(C)c1ccc(C(=O)Nc2cc(-c3ccccc3)no2)cc1	-0.4	-0.2
Cc1cccc(C(=O)N2N=C(c3ccc(Cl)cc3)CC2(O)C(F)(F)F)c1 (stereo not drawn)	0.49	.
O=C(CS(=O)CC(=O)Nc1cccc2c1CCCC2)Nc1ccc(F)cc1 (stereo not drawn)	.	-0.4
COc1cccc(NC(=O)C=C(C)C)c1	0.095	-1
CC1CCCC(C)N1CCNC(=O)c1ccc2c(c1)ncn2C1CCCCC1 (stereo not drawn)	0.24	-1.4
Cc1cc(C)c(C#N)c(N2CCN(S(=O)(=O)c3ccc(F)cc3)CC2)n1	1.4	.
CNC(=S)N(Cc1nnc(-c2ccc(Cl)cc2)o1)C1CCCC1	.	0
COC(=O)c1cc2ccsc2n1Cc1ccccc1	-0.61	-0.1
O=C(Nc1cc(Cl)cc(Cl)c1)c1c(O)c2cccc3c2n(c1=O)CCC3	-0.59	.
COc1ccc2c(c1)C(O)c1ccccc1CO2 (stereo not drawn)	0.23	0.2
CCc1ccccc1NC(=O)C(Cc1ccccc1)N1C(=O)c2ccccc2C1=O (stereo not drawn)	0.21	0.3
Clc1ccc(CN2CCN(Cc3ccccc3)CC2)cc1	-0.28	1.2
COCCNCC1C(Oc2ccc(Cl)cc2)C(=O)N1c1ccc(C)cc1 (stereo not drawn)	0.28	-1.1
Cc1cc(C(=O)O)c2ccccc2n1	-0.73	-0.6
COC(=O)C(NS(=O)(=O)c1ccc(NC(C)=O)cc1)C(C)C (stereo not drawn)	0.53	0.85
O=C(CN1CCOCC1)N1N=C2c3ccccc3CCC2C1c1ccc(Cl)cc1 (stereo not drawn)	-0.76	0.7
O=S(=O)(Oc1ccc(Oc2ccccc2)cc1)c1cccc(Cl)c1Cl	-0.11	.
S=C(Nc1ccc(Cl)cc1)N1CCN(C2CCCCC2)CC1	-0.025	2.2
CN1CCN(C(=O)Cn2nc(-c3ccccc3)c3ccccc3c2=O)CC1	.	1.9
COc1cc(C2SC(C)C(=O)N2CCc2ccccc2)cc(OC)c1OC (stereo not drawn)	-0.36	-0.2
CNc1nnc(CSc2nc(C)cc(C)n2)s1	0.69	-0.8
CC(C)(C)S(=O)(=O)c1ccsc1S(C)(=O)=O	0.05	-0.95
COC(=O)c1nc2nc(C)c([N+](=O)[O-])c(=O)n2[nH]1	-0.71	.
Cn1c(CCC(=O)NNC(=O)c2ccccc2OC(F)(F)F)nc2ccccc21	0.26	.
O=C(NCCSc1nnnn1-c1ccccc1)c1ccc(Cl)cc1	0.12	-0.55
CCCNC(=O)Nc1ccc2c(c1)N(CC)C(=O)c1ccccc1S2	0.17	-0.1
O=C(CNC(=O)C1CCCCC1)Nc1nc2ccccc2[nH]1	.	-0.4
COCc1cc(C)nc(SCC(=O)Nc2cc(Br)cc3cccnc23)c1C#N	-0.52	.
Cc1cccc(NC(=O)C(O)C(O)C(=O)Nc2cccc(C)c2)c1 (stereo not drawn)	.	0.35
CCOC(=O)Oc1ccc2c(=O)c(-c3ccc(OC)c(OC)c3)c(C(F)(F)F)oc2c1	0	.
CCN(CC)S(=O)(=O)c1ccc(/C=C/C(=O)NC2CCCCC2)cc1	0.76	1.2
CCCCOc1ccc(-c2nc(C=Nc3cnc4cc(OC)ccc4c3)c(O)o2)cc1	5.4	.
Cc1cc(C)c(NC(=O)C23CCC(C)(C(=O)O2)C3(C)C)c([N+](=O)[O-])c1 (stereo not drawn)	-0.47	.
Cc1ccc(C2(c3ccc(C)cc3)SC3(SC(C(=O)c4ccccc4)=NN3c3ccccc3)c3ccccc32)cc1 (stereo not drawn)	0.18	.
CCN1CCN(C(=O)c2ccccc2SC)CC1	0.26	0.4
CCN1C(=O)c2cccc3c(S(=O)(=O)N4CCOCC4)ccc1c23	1.6	.
CC(NCCN1CCOCC1)C(=O)NC1CCCCC1 (stereo not drawn)	.	0
CCc1ccc(Oc2coc3cc(OC(=O)OC)ccc3c2=O)cc1	-0.46	-0.2
COc1cc(OC)cc(C(=O)NC(=S)Nc2cccc(-c3nc4ccccc4o3)c2C)c1	0.55	-0.7
COc1ccc(OC)c(C2NC(=O)NC(C)=C2C(=O)OC(C(F)(F)F)C(F)(F)F)c1 (stereo not drawn)	0.07	.
O=C(COc1ccc(Cl)cc1)NCc1nnc(SCC(=O)NCc2ccco2)o1	-0.32	-0.55
CCOC(=O)c1ccc(NCc2nc(N)nc(Nc3ccccc3C)n2)cc1	.	-0.45
Cc1cc(S(=O)(=O)/N=C(\N)c2ccccn2)cc(C)c1F	0.095	-0.4
COc1ccccc1CN1C(=O)c2ccccc2C1C(=O)NCCCN1C(C)CCCC1C (stereo not drawn)	0.6	0.5
CCOC(=O)c1c(NC(=O)CCC(=O)OC)sc2c1CCC2	2	-1.1
CC(=O)OC[C@H](OC(C)=O)[C@@H](OC(C)=O)[C@@H](OC(C)=O)[C@H](OC(C)=O)C(=O)O	0.27	.
Cc1ccc(Cc2nnc(C(=O)NCCCN3CCC(Cc4ccccc4)CC3)o2)cc1	0.28	-0.8

Next part; it opens with the 7 that closed the last part.
SMILES	CapD inh	AID504770
O=C(COc1ccc(Cl)cc1)NCc1nnc(SCC(=O)NCc2ccco2)o1	-0.32	-0.55
CCOC(=O)c1ccc(NCc2nc(N)nc(Nc3ccccc3C)n2)cc1	.	-0.45
Cc1cc(S(=O)(=O)/N=C(\N)c2ccccn2)cc(C)c1F	0.095	-0.4
COc1ccccc1CN1C(=O)c2ccccc2C1C(=O)NCCCN1C(C)CCCC1C (stereo not drawn)	0.6	0.5
CCOC(=O)c1c(NC(=O)CCC(=O)OC)sc2c1CCC2	2	-1.1
CC(=O)OC[C@H](OC(C)=O)[C@@H](OC(C)=O)[C@@H](OC(C)=O)[C@H](OC(C)=O)C(=O)O	0.27	.
Cc1ccc(Cc2nnc(C(=O)NCCCN3CCC(Cc4ccccc4)CC3)o2)cc1	0.28	-0.8
N#CC1=C(N)Oc2n[nH]c(-c3ccccc3)c2C12C(=O)Nc1ccc(F)cc12 (stereo not drawn)	0.44	.
Cc1noc(C)c1CCNC(=O)c1[nH]nc2c1CCc1ccccc1-2	0.64	-0.35
O=C(OCCOc1ccc(Br)cc1)c1ccc2c(=O)n3c(nc2c1)CCC3	.	-0.1
C/C(=N\N(C=O)c1ccc(C(=O)O)cc1)C(=O)c1ccccc1	.	0.25
O=C(CSc1nc2[nH]ncc2c(=O)n1-c1ccc(Cl)cc1)Nc1ccc(Oc2ccccc2)cc1	0.23	.
COc1ccc(NC(=O)C2CC2)cc1OC	0.03	-0.6
CC(C)(C)c1ccc(-c2nc(NCCCN3CCOCC3)c3ccccc3n2)cc1	0.39	.
COc1ccc2c(c1)nc(CN1CCN(C)CC1)n2C	.	0
O=C1C(=O)N(CC2CCCO2)C(c2ccccc2)/C1=C(/O)c1ccccc1 (stereo not drawn)	.	-1.1
O=C(NCC(c1ccccc1)c1c[nH]c2ccccc12)c1ccc(C(F)(F)F)cc1 (stereo not drawn)	0.27	0.15
Cc1ccc(S(=O)(=O)N(/C(N)=N/c2nc(C)cc(C)n2)c2ccc(C)c(C)c2)cc1	10	-0.55
CSc1c(C#N)c(-c2ccc(Cl)cc2)nn1C(=O)c1cccs1	0.74	-1.1
COc1ccc(-c2csc(C(=O)NC(C)C)c2)cc1	-0.35	.
Cc1cnc(=O)[nH]c1SCc1cccc2ccccc12	.	1.1
CCS(=O)(=O)c1ccc2oc(=S)n(CN(C)Cc3ccccc3)c2c1	.	0.55
COc1cc(OC)nc(C2CCCCC2C(=O)NC(C)c2ccccc2)n1 (stereo not drawn)	-0.1	.
Cc1ccccc1CNC(=O)c1c(C)nc2ccccn2c1=O	-0.73	-0.25
N#Cc1c(SCCN2CCCCC2)sc2c(O)cc(=O)[nH]c12	.	-0.8
CC12CCC(c3c1nn(-c1ccccc1)c3C(F)(F)F)C2(C)C (stereo not drawn)	0.71	-1
Nc1nnc(CCCn2c(=O)oc3ccccc32)s1	0.1	-0.4
[O-][n+]1ccccc1Sc1nnc(Cc2ccccc2)c2ccccc12	-0.12	-1.2
N#C/C(=C\N1CCN(Cc2ccccc2)CC1)S(=O)(=O)c1ccccn1	0.47	-0.1
OCCN(CCO)CC(O)C12CC3CC(CC(C3)C1)C2 (stereo not drawn)	0.14	-0.4
CN1C(=O)C2(NN=C(c3ccccc3)S2)c2cc(Br)ccc21 (stereo not drawn)	-0.65	0.25
O=C(Oc1ccc2c(c1)OCC2=O)c1ccc(Cl)cc1	-0.18	-0.45
COC(=O)C(=O)/C=C(\O)c1ccc(Cl)cc1	-2.4	-0.35
CCCNC(=O)Cn1cccc1C(=O)c1ccccc1	0.075	0.6
Cc1ccc(N=Cc2cc(Br)ccc2O)c(S(=O)(=O)N2CCOCC2)c1	.	-0.4
N#Cc1ccccc1S(=O)(=O)NCc1ccco1	.	1.5
Cc1cc(C)c2c(c1)CC(C)(C)c1nc3cc(Cl)c(C)cc3nc1-2	0.27	.
Cc1cc(C)cc(NC(=O)c2cc(S(=O)(=O)N3CCN(c4ccccc4)CC3)ccc2F)c1	-0.22	.
C=CCN(c1ccccc1)S(=O)(=O)c1cccc2cccnc12	-0.63	0.45
CCC(=O)Nc1nnc(COc2ccc(OC)cc2)s1	-0.17	1.9
Cc1ccc(NC(=O)CSC2CCCC2)c(C)c1	0.26	1
O=C(CCOc1ccccc1)Nc1nc(-c2ccccn2)cs1	-0.26	0.4
COc1ccc(CC(=O)NCC(C)C)cc1	0.33	-0.95
O=C(Nc1cccc(C(F)(F)F)c1)c1noc2c1CCCC2	-0.32	1.4
CCOc1ccccc1N1CCN(c2cc(Cl)nc(SC)n2)CC1	0.01	.
Cc1ccc2cccc(S(=O)(=O)N3CCCc4ccccc43)c2n1	-0.85	2.5
C=C(C)/C=N/NC(=S)Nc1ccc(S(=O)(=O)N2CCOCC2)cc1	.	-0.25
CCC(=O)NC(c1ccc(C(C)C)cc1)c1c(O)ccc2ccccc12 (stereo not drawn)	18	0.3
COc1ccccc1C(=O)NCC(=O)N1CCN(S(=O)(=O)c2cc(C)ccc2C)CC1	.	-0.85
CC1CCCC(C)N1C(=O)c1ccccc1 (stereo not drawn)	0.065	-0.95
COc1cc(SC)ccc1C(=O)N(C)c1ccccc1	0.24	-0.15
CCN(CC)C(=O)CSc1nnc(-c2ccc(OC)cc2)n1CCOC	.	-0.5
CC(C)(C)n1cccc1C=C1C(=O)NC(=O)NC1=O	-3.2	0.65
CN1CCN(CCCNC(=O)c2cc3c(=O)n(C)c4ccccc4c3s2)CC1	75	-0.95
O=S1(=O)CCC(Nc2nc(-c3cccnc3)nc3scc(-c4ccccc4)c23)C1 (stereo not drawn)	.	0.35
C=CCn1cnc2c(oc3ccccc32)c1=O	-1.1	2.8
CN(C)S(=O)(=O)Oc1ccsc1C(=O)Nc1ccc(F)cc1F	-0.53	.
CC(C)(C)C1CC=C2C(C#N)=C(N)C(C#N)(C#N)C(CCc3ccccc3)C2C1 (stereo not drawn)	3.4	-0.6
O=C(COc1ccccc1)Nc1ccc2oc(=O)ccc2c1	7	2
O=C(NCc1ccccn1)c1nn(-c2ccccc2)c(=O)c2ccccc12	.	0.1

Retrieved by structure from above:
SMILES	CapD inh	AID504770
CN1CCN(CCCNC(=O)c2cc3c(=O)n(C)c4ccccc4c3s2)CC1	75	-0.95
O=C(Oc1ccc2c(c1)OCC2=O)c1ccc(Cl)cc1	-0.18	-0.45
COc1ccc(CC(=O)NCC(C)C)cc1	0.33	-0.95
